gsp antag – qHTS for Antagonists of gsp, the Etiologic Mutation Responsible for Fibrous Dysplasia/McCune-Albright Syndrome: qHTS; gsp-mutant cells, cAMP HTRF, 30 min; control for the full effect not named in the record; Potency, µM (doses to about 76.9 µM), for the others: at the highest dose activity change, negative = inhibition, usual class: inhibitors; actives 0.4% (n = 340,000); active = falling curve of any shape with a large fitted effect; inconclusive = falling curve, mostly with a smaller effect; inactive = flat or rising curve; cell line not stated here;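 also: intracellular cAMP measured with PDE inhibitor Ro 20-1724 present during compound exposure; potency is read from the fitted curve at half-maximal effect; % is scaled to controls: 0 for no effect and ±100 for the full control effect; nearly all actives have a fitted effect of over 65% in size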
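Cells, 2000/well, grown 16–24 h in DMEM 10% FBS with 0.5 mg/ml G418, then compounds plus […] (300 uM addition stock), 30 min at 37C. cAMP read by HTRF (cAMP-d2 and anti-cAMP antibody-K in lysis buffer) after 30 min RT.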
gsp ag – qHTS for Agonist of gsp, the Etiologic Mutation Responsible for Fibrous Dysplasia/McCune-Albright Syndrome: qHTS | gsp mutant cells, cAMP HTRF, 30 min; control for the full effect not named in the record | Potency, µM (top dose mostly 76.9 µM), for inactives: at the highest dose activation (cAMP increase), actives largely listed as activators | actives 0.13% (n = 340,000); active = well fitted activation curve with a large enough effect; inconclusive = small, poorly fitted or top-dose-only effect, or another doubt; inactive = no such curve, though single readings can be large or run the other way; cell line not stated here;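 also: phosphodiesterase inhibitor Ro 20-1724 added with compounds to block cAMP breakdown; potency is read from the fitted curve at half-maximal effect; nearly all actives have a fitted effect of over 60% in size; about a fifth of the inactives were tested at one dose only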
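Cells stably selected in G418 were plated at 2000/well, grown 16-24 hr, then given compounds in DMSO with the PDE inhibitor […] (300 uM solution added) for 30 min at 37C; cAMP was read by HTRF.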
TRPML1 inh – qHTS for Inhibitors of the Human Mucolipin Transient Receptor Potential 1 (TRPML1); Mucolipin-1 (Homo sapiens), Q9GZU1; TRPML1-inducible cells, Ca2+ dye fluorescence, FDSS; stronger effect = lower value; inhibition of EC80 agonist-evoked calcium signal; activity change, negative = inhibition, % (concentration not given with the values); actives 0.02% (n = 390,000); in the data active means activity change below about -50%; inconclusive means about -30% to -50%; inactive means above about -30%;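 also: stimulus is agonist 54-4 at its EC80 concentration; % is scaled to controls: 0 for no effect and ±100 for the full control effect; compound concentration not given in the record; the text of the record puts the active cut at -80%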
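TRPML1-DL cells, Tet-induced overnight (~16 h, 37 °C) at 1,500 cells/well, were loaded with Ca8 no-wash dye plus quencher for 45-90 min at room temperature. Compounds were pinned during FDSS kinetic reading; agonist 54-4 at EC80 (4 uM final) then added.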
Sfp PPTase inh – qHTS Assay for Inhibitors of Bacillus subtilis Sfp phosphopantetheinyl transferase (PPTase); 4'-phosphopantetheinyl transferase ffp (Bacillus subtilis), Q9F4F7; Biochemical Sfp PPTase activity, qHTS; Potency, µM, for the others: max response, negative = inhibition, most hits filed as inhibitors; actives 3.5% (n = 310,000); active = well fitted inhibition curve with a large enough effect; inconclusive = small, poorly fitted or top-dose-only effect, or another doubt; inactive = no such curve, though single readings can be large or run the other way;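 also: the enzyme is Sfp with the accession as filed and its product quenches rhodamine fluorescence; potency is read from the fitted curve at half-maximal effect; 0% = enzyme reaction without inhibitor and -100% = no enzyme wells; top concentration of the series not given in the record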
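Sfp 15 nM + cpd, 15 min RT; start w/ rhodamine-CoA 5 uM, BHQ-2-YbbR 12.5 uM (final); 50 mM Hepes pH 7.6, 10 mM MgCl2, 0.01% NP-40, 0.01% BSA; read 525/598 nm at 0 and 30 min.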
Menin MLL FP FL – qHTS Assay for Inhibitors Targeting the Menin-MLL Interaction in MLL Related Leukemias: Competition With Fluorescein Labeled MLL-derived Peptide; 290,000 tested, under 10 active; FP activity change, % at 61.4 µM; Fluorescence polarization, fluorescein-MLL peptide displacement from menin; AID 1766, 2009; inconclusive = falling polarisation curve, or a change in total fluorescence; inactive = total fluorescence flat and polarisation flat or rising; no compound was filed as active; the % refers to the polarisation; negative = inhibition;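 also: % of control where 0% means no effect; inhibitors lower the polarisation; unlabelled MLL peptide was the positive control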
TRPV1 potentiator – HTS Assay for Compounds that Act as Potentiators of the Vanilloid Receptor 1 | TRPV1-expressing cells, Fluo-8 calcium influx, capsaicin EC20 potentiation; host cell line not named in the record; control for the full effect not named in the record | potentiation, % at 8.33 µM | actives 0.02% (n = 320,000) | AID 540277, 2011; active means potentiation above 80%; inconclusive means 30% to 80%; inactive means below 30%; also: 0% is about no effect
Target sequence (Q8NER1 whole entry, looked up): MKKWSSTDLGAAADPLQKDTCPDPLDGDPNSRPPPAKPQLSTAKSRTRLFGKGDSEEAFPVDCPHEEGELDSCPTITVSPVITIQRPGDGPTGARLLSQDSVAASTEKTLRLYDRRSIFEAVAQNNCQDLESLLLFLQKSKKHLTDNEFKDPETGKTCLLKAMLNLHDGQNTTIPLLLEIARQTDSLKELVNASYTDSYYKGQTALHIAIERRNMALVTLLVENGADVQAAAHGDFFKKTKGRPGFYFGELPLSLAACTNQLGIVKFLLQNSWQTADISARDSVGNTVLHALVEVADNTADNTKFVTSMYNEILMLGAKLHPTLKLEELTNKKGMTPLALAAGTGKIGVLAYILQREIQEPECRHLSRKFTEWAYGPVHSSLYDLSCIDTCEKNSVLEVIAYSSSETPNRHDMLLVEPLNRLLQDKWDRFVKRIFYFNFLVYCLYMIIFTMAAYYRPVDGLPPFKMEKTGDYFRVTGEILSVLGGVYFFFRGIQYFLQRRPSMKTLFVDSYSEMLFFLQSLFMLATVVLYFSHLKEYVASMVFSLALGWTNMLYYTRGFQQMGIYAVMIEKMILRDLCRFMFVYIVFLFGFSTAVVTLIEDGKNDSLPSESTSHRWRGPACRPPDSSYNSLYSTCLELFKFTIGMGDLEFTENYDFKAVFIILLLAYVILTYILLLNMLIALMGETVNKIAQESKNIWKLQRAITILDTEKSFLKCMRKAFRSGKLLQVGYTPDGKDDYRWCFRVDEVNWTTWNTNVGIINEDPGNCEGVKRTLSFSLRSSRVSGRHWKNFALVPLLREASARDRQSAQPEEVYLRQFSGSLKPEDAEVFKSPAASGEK
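Cells expressing TRPV1 were dye-loaded with Fluo-8 and read kinetically: 10 s baseline, 3 min after compound (agonist portion), then 2 min after EC20 capsaicin (allosteric enhancer portion). Calcium-bound dye fluorescence at 480/520 nm.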
ClpP mod – qHTS Assay for Activators of ClpP; actives 1.9% (n = 340,000); Potency, µM (highest dose often 57.5 µM), without a hit: at the highest dose activity change, negative = active; purified B. subtilis ClpP, FRET peptide cleavage, 20 min; active = well fitted falling curve with a large enough effect; inconclusive = small, poorly fitted or top-dose-only effect; inactive = no such curve, though single readings can be large or run the other way; also: potency is read from the fitted curve at half-maximal effect; the source files actives as falling curves though it sought activators and does not explain the sign; nearly all actives have a fitted effect of over 65% in size; many hits overshoot -100%
Target sequence (P80244 whole entry, looked up): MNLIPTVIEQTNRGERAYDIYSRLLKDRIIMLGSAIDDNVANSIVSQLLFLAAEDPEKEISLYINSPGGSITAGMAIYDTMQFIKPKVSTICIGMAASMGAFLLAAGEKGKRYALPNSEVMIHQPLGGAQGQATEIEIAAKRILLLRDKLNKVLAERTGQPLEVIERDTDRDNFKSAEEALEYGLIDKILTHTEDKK
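Purified B. subtilis ClpP, 10 microg/mL final in Tris/HCl pH8 with KCl, BSA, glycerol and Tween-20, cleaved an Abz/nitrotyrosine-quenched decapeptide. Fluorescence (ex 320, em 430) was read at 0 and 20 min at room temperature. Delta was normalized to 5.8 microM ADEP and DMSO/no-enzyme controls.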
* = called active by the depositor; ? = inconclusive; · = no result given; & = joins results of further samples; [ ] = another dose, or the depositor's remark.

SMILES	gsp antag	gsp ag	TRPML1 inh	Sfp PPTase inh	Menin MLL FP FL	TRPV1 potentiator	ClpP mod
COc1ccc(CCNC(=O)C2CC3Cn4c(nc5ccccc54)C3N2Cc2ccccc2)cc1 (stereo not given)	-7%	·	10	·	·	·	-0.2%
COc1ccc(C(=O)N2CCN(c3ccc(N4CCOCC4)nn3)CC2)cc1OC	-4%	-16%	-2	·	·	1	25µM*
C/C=C/c1ccc(OCc2cc(=O)n3cc(C)ccc3n2)c(OC)c1	-9%	5%	-13	-10%	-6.3	14	-0.6%
COc1ccccc1-c1sc2cc3c(cc2c1-c1ccc(OCCN2CCOCC2)cc1)OCO3	-13%	·	5	·	·	·	5.3%
Cc1ccc(-c2nc(-c3cccnc3)sc2CC(=O)Nc2ccc3nc(C)sc3c2)cc1	8%	19%	-13	-12%	6.8	14	0.7%
Cc1nc(CSc2n[nH]c(=O)n2-c2cccc(F)c2)cs1	2%	23%	0	7%	1.6	5	·
C=CCOC(=O)C1=C[C@@H](c2ccc(C(F)(F)F)cc2)[C@H](CCCO)[C@@H](OCC)O1	-14%	·	30	12%	4.7	-16	3.4%
C=C1CCc2c([nH]c3ccc(OCC(C)C)cc23)C1=O	10%	-1%[15.4 µM]	12	-8%	3.7	9	-2.2%
Cc1cc(-c2nnc(SCC(=O)Nc3cccc(Cl)c3)n2N)n[nH]1	6%	10%	4	3%	·	15	1.3%
N=c1scc(-c2ccccc2)n1/N=C/c1ccco1	4%	-6%	22	?	5.3	26	-1.8%
O=C(COc1ccc(S(=O)(=O)N2CCOCC2)cc1)NCc1ccccn1	13%	-15%[15.4 µM]	8	11%	·	-8	-9.0%
CCN1CCCC1CNC(=O)COc1cc(=O)n(C)c2ccccc12 (stereo not given)	4%	?	-1	2%	2.6	26	-6.3%
CCOC(=O)Cc1csc(NC(=O)c2ccc(NC(C)=O)cc2)n1	-3%	0%	-1	-9%	-0.2	6	0.1%
CC(C)CC(=O)Nc1sc2c(c1C#N)CC(C)(C)NC2(C)C	9%[15.4 µM]	-17%	-14	10%	5.0	-24	-1.2%
COc1cc(C2N(c3ccc(F)cc3)C(=O)C3CCCN32)cc(OC)c1OC (stereo not given)	0%	-3%	-1	0%	3.6	6	-1.2%
O=C1CS/C(=N/N=C/c2ccccc2OS(=O)(=O)c2ccccc2)N1	10%	-1%	7	8%	1.1	-7	0.4%
CC[C@@]1(C(=O)OC)N[C@H](CN(C)C(=O)Nc2ccc(C(F)(F)F)cc2)[C@@H]2C(=O)N(Cc3ccccc3)C(=O)[C@@H]21	3%	·	-1	·	·	·	4.0%
COc1ccc(S(=O)(=O)N2CCOCC2)cc1C(=O)NCC(c1ccco1)N1CCCC1 (stereo not given)	11%	-18%	-14	·	·	5	-1.5%
CN1CCC(CNC(=O)Nc2csc3ccccc23)CC1	14%	24%	-6	79µM*	2.7	-12	·
O=C(C#Cc1ccccc1)NCc1ccccc1F	5%	7%	10	-1%	0.5	-2	-2.2%
O=C(CN1C(=O)NC2(CCCC2)C1=O)NCC1CCCO1 (stereo not given)	5%	6%[15.4 µM]	-5	20%	3.3	2	·
CC(C)(C)OC(=O)NCCCCCNC(=O)c1nc[nH]c1C(=O)N1CCc2ccccc2C1	-23%	-23%	-20	·	·	·	1.2%
O=C(NCCCCNC(=O)c1ccc(Br)cc1)c1ccc(Br)cc1	-1%	?	-3	9%	-0.8	-4	-0.2%
O=C(Nc1nccs1)c1ccc(Br)c(S(=O)(=O)N2CCOCC2)c1	-12%	-2%	1	22%	2.6	-2	-1.1%
CCN(c1ccccc1)S(=O)(=O)c1ccc(Cl)c(NC(=O)CSc2nc(N)cc(=O)[nH]2)c1	·	-70%[inhibitor]	-2	·	·	·	0.5%

Marked active in Sfp PPTase inh (from the list above):
smiles	gsp antag	gsp ag	TRPML1 inh	Sfp PPTase inh	Menin MLL FP FL
CN1CCC(CNC(=O)Nc2csc3ccccc23)CC1	14%	24%	-6	79µM*	2.7

Other entries follow.
SMILES	gsp antag	gsp ag	TRPML1 inh	Sfp PPTase inh	Menin MLL FP FL	TRPV1 potentiator	ClpP mod
O=C(NCCc1ccc(F)cc1)Nc1ccccc1	-4%	-1%	-11	9%	-1.7	-7	2.0%
Cc1c(NC(=O)Cn2nc(C(F)(F)F)c3c2CCCC3)c(=O)n(-c2ccccc2)n1C	-3%	0%	7	5%	1.6	13	0.7%
COC(=O)c1c(-c2c(Cl)cccc2Cl)noc1NC(=O)NN1CCCCC1	?	-1%[15.4 µM]	28	?	1.9	-4	·
Cc1cc(=O)oc2cc(OCC(=O)Nc3ccc(F)cc3F)ccc12	10%	-8%[15.4 µM]	-7	·	·	17	·
COc1ccc(CCN(Cc2nc3ccccc3c(=O)[nH]2)C(=O)C2CC2)cc1	9%	11%	11	18%	2.2	0	·
Cc1ccc(N(C(=O)c2csnn2)C(C(=O)NC2CCCCC2)c2ccncc2)cc1 (stereo not given)	-23%	8%[15.4 µM]	7	17%	·	-5	-0.3%
O=C(NCc1ccc2c(c1)OCO2)c1cc2ccccc2o1	1%	3%	-3	7%	-1.6	-1	-2.4%
CCCC[n+]1ccn(-c2nc3ccccc3nc2[N-]S(=O)(=O)c2ccc(Cl)cc2)c1	16%	-13%[15.4 µM]	-4	-8%	-0.7	14	-1.6%
C#CCOCCOCCOCCNc1nc(N2CCN(C(=O)Cn3cc(CCCN=C(N)N)nn3)CC2)nc(N2CCN(C(=O)[C@H]([C@@H](C)CC)n3cc(CCCN=C(N)N)nn3)CC2)n1	·	·	·	-6%	-0.7	18	·
O=C(NC1CC1)c1cc2c(s1)-c1ccccc1OC2	2%	-28%	63	-16%	-0.5	-24	5.0%
Cc1ccc(NS(=O)(=O)c2c(C(=O)N3CCCC3)c(C)n(C)c2C)cc1	13%	6%	-20	9%	-4.2	-6	-0.3%
Cc1ccc(C(=O)N2CCC3(CC2)NCCc2[nH]cnc23)cc1C	4%	-27%	31	13%	·	3	-0.9%
O=C(NCc1ccccc1)c1ccc[n+]([O-])c1	4%	-39%[inhibitor]	·	5%	-5.0	26	1.4%
O=C(CCCCn1cnc2c(=S)nc[nH]c21)Nc1ccc(C(=O)O)c(O)c1	6%	-4%[15.4 µM]	9	·	·	·	-1.0%
CC(C)C(NC(=O)c1c(F)cccc1F)C(=O)NCc1ccc(S(=O)(=O)N2CCOCC2)cc1 (stereo not given)	4%	0%	1	·	·	11	2.3%
O=C(C(=O)N1CCOCC1)c1cn(CC(=O)N2CCc3ccccc3C2)c2ccccc12	-7%	7%	3	15%	5.6	8	·
O=C(NNC(=O)c1nn(-c2ccc(F)cc2)ccc1=O)c1ccc(C(F)(F)F)cc1	-5%	0%[15.4 µM]	3	6%	2.2	·	0.2%
Oc1[nH]c2ccc(Br)cc2c1N=Nc1ccc(C(F)(F)F)cn1	5%	2%	-4	2%	1.3	-13	·
O=C(Nc1nccs1)C1C2CC3OC(=O)C1C3C2 (stereo not given)	3%	-1%	16	17%	0.9	2	-0.7%
CC(C)(C)Nc1nc(NCc2cccnc2)nc(N2CCOCC2)n1	10%	15%	-1	-3%	5.6	-5	0.0%
O=C(OCC(=O)c1ccco1)c1ccc2ncsc2c1	17%	-16%	7	2%	-0.1	1	-1.9%
O=C(/C=C/c1ccc(Cl)cc1Cl)Nc1cccc(S(=O)(=O)NC2=NCCC2)c1	-14%	9%	-11	13%	2.6	-9	-3.5%
Cc1ccc(CN2C(=O)NC(Cc3c[nH]c4ccccc34)C2=O)cc1 (stereo not given)	1%	1%	-7	-3%	-1.8	0	-0.6%
COc1cccc(C2=NOC(C(=O)NCCN3CCOCC3)C2)c1 (stereo not given)	9%	14%	-5	2%	5.5	11	-1.4%
CCN(Cc1cccs1)C(=O)CN1CCN(S(=O)(=O)c2ccc3c(c2)OCCCO3)CC1	-13%	-1%[15.4 µM]	1	·	·	-3	-1.7%
Remaining list, next part:
SMILES	gsp antag	gsp ag	TRPML1 inh	Sfp PPTase inh	Menin MLL FP FL	TRPV1 potentiator	ClpP mod
Cc1ccc(-n2nc3c(c2NC(=O)c2ccco2)CS(=O)C3)c(C)c1 (stereo not given)	0%	29%	7	·	·	5	25µM*
COc1cc(CCC(=O)OCC(=O)Nc2ccccc2F)cc(OC)c1OC	1%	-3%	32	19%	-2.0	2	·
Cc1cccc(-c2nnc(NC(=O)c3ccc(Cl)cc3)o2)c1	-6%	?	-4	16%	2.4	4	-0.9%
COc1ccc(NCc2nc3ccccc3n2C)cc1	0%	-1%	5	7%	3.2	15	19%
CCOc1ccc(S(=O)(=O)NCCC(=O)N2CCN(C(C)=O)CC2)cc1	·	6%	-10	·	·	·	-0.2%
CCN(CC)S(=O)(=O)c1ccc(C)c(C(=O)Oc2cccc(-c3cnc4ccccc4n3)c2)c1	1%	-20%	4	0%	-0.3	16	·
COc1ccc(N(CC(=O)NCCC2=CCCCC2)S(=O)(=O)c2ccccc2)cc1	-10%	-117%[inhibitor]	-23	1%	0.7	-20	-0.7%
O=C(Cn1c[n+](CC(=O)c2ccc([N+](=O)[O-])cc2)cn1)c1ccc([N+](=O)[O-])cc1	20%&-8%	-19%&1%	?	45µM*	0.4&0.7	14&4	1.6%&1.3%
O=c1c(C(c2c(O)nc3n(c2=O)CCS3)c2cccc3ccccc23)c(O)nc2n1CCS2	-2%	3%	-7	-4%	1.5	-2	1.3%
COc1cccc(CNC(=O)Cn2cccc2C(=O)c2ccccc2C)c1	-14%	-4%	2	8%	·	-8	-0.4%
COc1cccc(C(=O)NCC(=O)N2CCC3(CC2)NCCc2[nH]cnc23)c1OC	-12%	-2%	-9	-8%	·	16	-16%

Source: PubChem
